Assay outcomes as filed in PubChem BioAssay.
hNpr1 antagonist – antagonists of human natriuretic peptide receptor Npr1; P16066; HEK293 hNpr1 GloSensor cGMP, ANP-stimulated luminescence; Potency, µM (series often up to 46.3 µM), for the others: at the top dose activity change, negative = inhibition, most hits filed as inhibitors; 1.6% of 76,000 active; AID 1347048; active = well fitted inhibition curve with a large enough effect; inconclusive = small, poorly fitted or top-dose-only effect; inactive = no such curve, though single readings can be large or run the other way;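 note: nearly all actives have a fitted effect of over 60% in size; nearly all hits also lower the signal before the agonist is added; a reference antagonist and vehicle were the controls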
Target sequence (P16066 whole entry, looked up): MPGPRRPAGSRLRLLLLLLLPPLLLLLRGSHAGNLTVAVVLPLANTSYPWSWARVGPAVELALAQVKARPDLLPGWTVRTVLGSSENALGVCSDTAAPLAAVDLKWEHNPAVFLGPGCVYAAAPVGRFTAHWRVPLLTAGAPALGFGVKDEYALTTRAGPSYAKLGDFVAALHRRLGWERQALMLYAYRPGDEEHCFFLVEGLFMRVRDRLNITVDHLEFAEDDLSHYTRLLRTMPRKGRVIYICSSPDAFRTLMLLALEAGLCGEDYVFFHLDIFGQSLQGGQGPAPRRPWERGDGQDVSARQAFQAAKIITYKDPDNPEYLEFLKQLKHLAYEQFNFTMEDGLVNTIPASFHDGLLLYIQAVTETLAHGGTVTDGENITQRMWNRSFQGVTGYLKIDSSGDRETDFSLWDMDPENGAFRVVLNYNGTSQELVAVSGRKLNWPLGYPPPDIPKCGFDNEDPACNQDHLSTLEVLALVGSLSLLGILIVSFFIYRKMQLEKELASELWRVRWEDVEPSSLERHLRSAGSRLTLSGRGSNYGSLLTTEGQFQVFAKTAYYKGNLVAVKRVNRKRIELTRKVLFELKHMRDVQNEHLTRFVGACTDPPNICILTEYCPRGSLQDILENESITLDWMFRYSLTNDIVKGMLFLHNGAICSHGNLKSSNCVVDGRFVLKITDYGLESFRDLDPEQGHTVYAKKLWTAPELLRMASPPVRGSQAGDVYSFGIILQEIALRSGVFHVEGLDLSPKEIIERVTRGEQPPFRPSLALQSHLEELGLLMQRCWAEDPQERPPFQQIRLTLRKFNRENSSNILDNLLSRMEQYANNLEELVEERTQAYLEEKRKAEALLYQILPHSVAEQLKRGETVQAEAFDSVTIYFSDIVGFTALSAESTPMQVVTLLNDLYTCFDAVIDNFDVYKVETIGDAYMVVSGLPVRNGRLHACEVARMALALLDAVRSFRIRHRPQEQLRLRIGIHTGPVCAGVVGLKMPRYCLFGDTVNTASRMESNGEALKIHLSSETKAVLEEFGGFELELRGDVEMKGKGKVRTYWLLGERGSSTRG
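HEK293 cells stably expressing human Npr1 and cGMP GloSensor pGS-40F, loaded 2 h with 2% GloSensor reagent, given compound 30 min at room temperature. Luminescence read before and 20 min after 0.1 nM hNppA.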
* marks the source's active call; other numbers are inactive results; ? = inconclusive; & = joins results of further samples; [ ] = another dose, or the depositor's remark. % is set by controls: 0 for no effect and ±100 for the full control effect; potency is the fitted concentration of half-maximal effect. The list is partial. The share of hits here may be higher or lower than overall.

SMILES | hNpr1 antagonist
COc1ccc(-c2ccc3ncc(Nc4cccc(Cl)c4)n3n2)cn1 | ?
CN1C[C@@H](NC(=O)C2CCCCC2)C[C@H]1c1nc(-c2ccccc2)no1 | 6%[70.6 µM]
Cc1cccc(C(=O)Nc2ccc(-c3nnc4n3CCCC4)cc2)c1 | 5%
CCCc1cc(C(=O)N[C@H](c2ccccn2)C2CC(O)C2)cs1 (some centres not stated) | 6%
CS(=O)(=O)c1ccc(-c2ccc(CN3CCOCC3)cn2)cc1 | -2%
COc1ccc(OC)c(CNC(=O)CC2CCCCN(C)C2=O)c1 (configuration not stated) | 2%
CCNC(=O)CCC[C@@H]1[C@H]2CCCN3CCC[C@@H](CN1Cc1cccnc1)[C@@H]23 | 2%
CC(C)C(=O)N1CCc2ccc(OCc3nc(C(=O)N4CCCC4)co3)cc2C1c1cccc(F)c1 (configuration not stated) | -3%
Cc1[nH]c2ccccc2c1CC(=O)NC1CCCN(c2ncccn2)C1 (configuration not stated) | 4%
CCN(CC)C(=O)CC[C@H]1CNC(=O)[C@@H]2[C@@H](CCN2C(C)C)N1C | 1%[70.6 µM]
Cc1noc(-c2cn(C3CCN(C(=O)c4ccc(F)cc4Cl)C3)nn2)n1 (configuration not stated) | 2%
COc1ccc(C(=O)N[C@@H]2CN(c3ncccn3)C[C@H]2CN(C)C)c(OC)n1 | 1%
COc1ccc(S(=O)(=O)N2C[C@@H]3C[C@H](C2)c2c(NC(=O)Nc4ccccc4)ccc(=O)n2C3)cc1 | -1%
COCC(=O)Nc1nc2c(s1)C[C@@H]1[C@](C)(CO)[C@H](O)CC[C@@]1(C)[C@@H]2CC(=O)NC(C)C | 2%
O=C(CN1CC(=O)NC1=O)NCc1ccc2[nH]c3c(c2c1)CCCCCC3 | 3%
Cc1ccc(-c2ccc3nnc(CNC(=O)c4cccc5[nH]ccc45)n3n2)cc1C | -13%
CCN1C(=O)CCN(C(=O)CCc2ccccc2)CC12CCOCC2 | 5%
CCOC(=O)C1=CN(CC(=O)Nc2ccccc2CC)S(=O)(=O)N=C1C | -14%
O=C1COc2ccc(-c3ccoc3)nc2CN1CCOc1ccccc1 | ?
COc1ccc(CN2CC3(CCN(S(=O)(=O)C(C)C)CC3)C2=O)cc1 | 1%
O=C(Nc1ccc(Cl)cc1)N1CCc2nc(-c3ccc(Cl)cc3)nc(-c3ccccc3)c2C1 | 9%
COCc1ccc(C(=O)NCC2COc3cc(OC)ccc3C2)o1 (configuration not stated) | 2%
CNC(=O)[C@H]1C[C@H](Oc2ccccc2)CN1C(=O)c1ccccc1 | -9%
CCC1(N2CCN(C(=O)c3cc(Cl)ccc3OC)CC2)CCN(S(C)(=O)=O)C1 (configuration not stated) | 4%
CCOCC(=O)N1CCN(C(=O)N2CC3CC(C2)[C@H]2CCCC(=O)N2C3)CC1 (some centres not stated) | 4%
O=C1CC(c2ccccc2)N(C(=O)CNC(=O)Nc2ccccc2)CCCCCCN1 (configuration not stated) | 2%
Cc1cc(=O)n(CC(=O)N2CCN(c3ccccc3F)CC2)c(-c2ccc(F)cc2)n1 | 0%
CN(CC1CCOC1)S(=O)(=O)Cc1ccc(Cl)cc1 (configuration not stated) | -2%
Oc1ccc(-c2nc(C3CC3)nc3c2CCN(Cc2ccc(OC(F)(F)F)cc2)CC3)cc1 | -7%
Cc1ccc(NC(=O)Cn2c(C)cc3nc4n(c(=O)c32)CCCCC4)c(Cl)c1 | 3%

Single values from the list.
hNpr1 antagonist result of `O=C1CC(c2ccccc2)N(C(=O)CNC(=O)Nc2ccccc2)CCCCCCN1` (configuration not stated) is entered as 2%
hNpr1 antagonist result of `Oc1ccc(-c2nc(C3CC3)nc3c2CCN(Cc2ccc(OC(F)(F)F)cc2)CC3)cc1` is entered as -7%
hNpr1 antagonist result of `Cc1ccc(NC(=O)Cn2c(C)cc3nc4n(c(=O)c32)CCCCC4)c(Cl)c1` is entered as 3%

(list continues)
SMILES | hNpr1 antagonist
Cn1cc(CNC(=O)C[C@@H]2C[C@H]3O[C@H](CNC(=O)NC4CCCCC4)[C@@H](O)[C@H]3O2)cn1 | 9%
CNC(=O)[C@@H]1C[C@H](Oc2ccccc2)CN1S(C)(=O)=O | -12%
Cc1ccc(CNC(=O)N(C)C2CCc3nn(CC4CC4)c(=O)n3CC2)cc1 (configuration not stated) | 2%
O=C(CC1=C2CCCCC2NC1=O)NC1CCCCC1 (configuration not stated) | 5%
COc1ncccc1C(=O)N1CCC(CCC(=O)N2CCC(Cc3ccccc3)CC2)CC1 | ?
COc1ccc(CN2Cc3[nH]cnc3C[C@H]2C(=O)NCc2ccc(C#N)cc2)c2ccccc12 | -19%
O=C(COc1ccc(NC(=O)C2CC2)cn1)NC1CCN(Cc2ccccc2)CC1 | -1%
COc1ccc(-c2noc(Nc3ccc4c(c3)OCCO4)n2)cc1 | ?
COc1ccc(C(=O)N2CCC(N3C[C@H](O)C[C@H]3C(=O)NC3CCCCC3)CC2)cc1OC | -16%
COc1ccc(Nc2ccc3nnc(-c4ccc(C)cn4)n3n2)cc1 | -7%[70.6 µM]
O=C(COc1ccccc1)N[C@H]1CO[C@H]2[C@@H]1OC[C@H]2OC(=O)Nc1cccc2ccccc12 | -10%
CCOc1ccccc1CN1CC[C@H](c2n[nH]c(C)n2)[C@H](NC(=O)C2CC2)C1 | 4%
CCSc1ncc(CN2CCN(c3ccc4nccn4n3)CC2)cn1 | -4%
COc1ccc(CNC(=O)CC[C@H]2CNC(=O)[C@H]3NCC[C@H]3N2C)cc1 | -2%[70.6 µM]
Cc1cc(C(=O)N2c3ccccc3CC2c2nnc(C(C)C)o2)nn1C (configuration not stated) | -8%
Cn1cccc1CN1CCC2(CN[S+](=O)([O-])c3ccccc3N2)C1 (configuration not stated) | -2%[70.6 µM]
Cc1noc(C)c1-c1cc2cc(CN(C)C)oc2c(NCC(C)C)n1 | -13%[70.6 µM]
Cc1ccc(C2NC(=O)N(CC(=O)Nc3ccc(F)cc3)C3=C2C(=O)OC3)cc1 (configuration not stated) | -15%
O=C(NCC1CC1)c1ccc(N2CC3CC(C2)[C@H]2CCCC(=O)N2C3)nc1 (some centres not stated) | 1%
OC1CC(c2cc(N3CCC(c4nnc5ccccn45)CC3)ncn2)C1 (configuration not stated) | 3%
CC(C)C(=O)N1CCC2(CC1)CN(c1ccccc1)C2=O | 168%[activator]
CCC1Oc2ccc(NC(=O)Cc3ccccc3)cc2CN(Cc2ccc(OC)cc2)C1=O (configuration not stated) | 0%
O=C(CNC(=O)c1cnccn1)NC1CCCc2c1[nH]c1ccc(F)cc21 (configuration not stated) | 1%
COc1ccc(CC2(CO)CCNCC2)cc1 | 1%
COCc1nc2nc(-c3ccccc3)c(-c3cccnc3)cc2n1C | 0%[70.6 µM]
O=C(Cn1ccn2nc(-c3ccccc3)c(CO)c2c1=O)Nc1cccc(F)c1 | 4%
Cn1nccc1CN1CCC2(COc3ccccc3C(=O)N2)C1 (configuration not stated) | 7%[70.6 µM]
CC(C)c1noc(-c2cccn3c(CNC(=O)Cc4c[nH]c5ccccc45)nnc23)n1 | -3%
CCC(C)C(=O)N1CCc2[nH]nc(C(=O)NCCCc3ccccc3)c2C1 (configuration not stated) | 0%
Cc1noc(-c2cn(C3CCN(C(=O)c4ccc5[nH]ccc5c4)CC3)nn2)n1 | 0%
COc1ncccc1-c1ccc2onc(C)c2n1 | 4%[70.6 µM]
CC(C)c1nc(CCN(C)C(=O)c2cn(CCC3CCCCN3)nn2)no1 (configuration not stated) | 0%
COc1ccc(-c2cc(-c3cccc(C(N)=O)c3)cn3cncc23)cc1 | -15%[70.6 µM]
CCOCC1(C)COc2ccc(C(=O)Nc3ccc(Cl)cc3)cc2N1 (configuration not stated) | 32µM*
Cc1ccc(CN(C)C(=O)CC(c2ccccc2)c2ccc3c(c2)OCO3)o1 (configuration not stated) | -7%
CN(CC1CCOCC1)C(=O)Nc1ccc(Cl)cc1F | 0%
O=C(C[C@H]1NC(=O)c2ccccc2NC1=O)Nc1cccc2[nH]ccc12 | -7%
CN1CCCN(C[C@@H]2CN(C(=O)C3(Cn4cccn4)CC3)C[C@@H]2CO)CC1 | 0%
O=C(NC[C@H]1OC[C@@H](NC2CCC2)[C@@H]1O)Nc1ccccc1 | -6%[70.6 µM]
CC(C)Oc1ccc2c(NC(=O)CN3CCOCC3)nn(CC(F)(F)F)c2c1 | 2%
C[C@@]1(O)CCN(Cc2cccc(OC(F)F)c2)C[C@@H]1O | -2%
COc1ccc(Cl)cc1NC(=O)NCCc1noc(C2CC2)n1 | -1%
CCOCCN1C(=O)COC[C@@H]1[C@H](O)c1ccc(NC(=O)c2ccccc2)cc1 | -2%[70.6 µM]
COc1cccc(CNC(=O)N2c3ccccc3CC2c2noc(C3CCOCC3)n2)c1 (configuration not stated) | -4%
COCCO[C@H]1C(=O)N(C2CCNCC2)[C@H]1c1ccncc1 | 1%
O=C(NCc1nc(-c2cnccn2)n[nH]1)[C@H]1CNC[C@H](C(=O)N2CCOCC2)C1 | -3%
OCC1CN(c2ccncn2)CC12CCN(Cc1c[nH]c3ccccc13)CC2 (configuration not stated) | 11%
O=C1CCN(Cc2ccc3c(c2)CCO3)CCOCCN1 | -9%
CN(Cc1ccc(-c2ccccc2)cc1)C(=O)c1ccc(C(F)(F)F)cc1 | 1%
CCCS(=O)(=O)N1CC(n2cc(C(=O)NCC3CC3)nn2)C1 | -1%

Following part
SMILES | hNpr1 antagonist
COc1ccc(NC(=O)O[C@@H]2CC[C@]3(C)C(CC[C@@H](O)[C@H]3CC(=O)N3CC[C@@H](O)C3)[C@]2(C)CO)cc1 (some centres not stated) | 4%
COc1ccc([C@@H](NC(=O)c2ccc(CSC)o2)C2CC(O)C2)cn1 (some centres not stated) | 4%
Cc1nc2cc(C(=O)N3CCC4(CC3)c3nc[nH]c3CCN4C)ccc2s1 | -1%
CCNC(=O)C1C(c2cccc(NC(=O)c3ccccc3)c2)OC(=O)N1Cc1ccc(C)cc1 (configuration not stated) | -19%
CC(C)NC(=O)N(Cc1cccnc1)C1CNC1 | 5%
O=C(Cc1cccc(F)c1)NCC(=O)N1CCCCCNC(=O)CC1c1ccccc1 (configuration not stated) | 2%
O=C(NC1CCCCC1)N1CC(c2nc(CCOCC3CC3)no2)C1 | 2%
CCC(C)C(=O)N1CCC2(CC1)NCCc1c2[nH]c2ccc(OC)cc12 (configuration not stated) | 3%
COCc1nc(C2CC(NC(=O)CN3C(=O)NC(=O)C3(C)C)C2)cc(=O)[nH]1 (configuration not stated) | 6%
c1ccc(-c2nc(-c3ccncc3)no2)c(OC2CCN(C3CCCC3)C2)c1 (configuration not stated) | 4%
COc1ccc(C(=O)N2CCC(N3C(=O)C4(CCCC4)C3c3ccccc3)CC2)cc1 (configuration not stated) | 9%
COc1ccccc1N1CCCc2ncc(C(=O)N3CCCC[C@@H]3c3ccccc3)cc21 | ?
COc1ccccc1CN1Cc2cc(NC(=O)c3ccc4c(c3)OCO4)ccc2OC(C)C1=O (configuration not stated) | -14%
CC(C)CCNC(=O)c1c(OCC2CC2)cc(=O)n2c1CCOCC2 | 3%
COCCC1(NS(=O)(=O)N(C)C)CCN(S(C)(=O)=O)CC1 | 10%
COCc1nnc(NC(=O)C[C@H]2NC(=O)c3ccccc3NC2=O)s1 | 4%
O=C(Cn1cnnn1)N1CCC2(CCCNC2=O)C1 (configuration not stated) | 0%
CN1C[C@H](NCc2ccc(C(F)(F)F)cc2)CCC[C@@H](C(=O)N(C)Cc2cccnc2)CC1=O | ?
CCCn1cc(S(=O)(=O)N[C@H](CC)C2CC(O)C2)cn1 (some centres not stated) | 4%
O=C(c1cc(Br)cn2ccnc12)N1CCOCC1 | 0%&0%[70.6 µM]

An excerpt of these results, with each value named:
COCc1nnc(NC(=O)C[C@H]2NC(=O)c3ccccc3NC2=O)s1
  hNpr1 antagonist: 4%
CN1C[C@H](NCc2ccc(C(F)(F)F)cc2)CCC[C@@H](C(=O)N(C)Cc2cccnc2)CC1=O
  hNpr1 antagonist: ?
CC(C)CCNC(=O)c1c(OCC2CC2)cc(=O)n2c1CCOCC2
  hNpr1 antagonist: 3%
COCCC1(NS(=O)(=O)N(C)C)CCN(S(C)(=O)=O)CC1
  hNpr1 antagonist: 10%

Continued:
SMILES | hNpr1 antagonist
CCN1C(=O)CCN(C(=O)c2cccs2)CC12CCOCC2 | 5%
COC(=O)CO[C@@H]1CO[C@H]2[C@@H]1OC[C@@H]2NC(=O)Nc1cccc(C(F)(F)F)c1 | 6%[70.6 µM]
O=C1CC(c2noc(-c3cc(F)ccc3F)n2)CN1c1ccc(Cl)cc1 (configuration not stated) | 3%
Cc1cccc(C)c1-c1nc(C(=O)NC(C)C)n2ccccc12 | -6%[70.6 µM]
COCC(=O)NC1CCC12CCN(C(=O)C1CC1)CC2 (configuration not stated) | 2%
COc1ccc(N2CC(c3noc(-c4ccc(Cl)cc4OC)n3)CC2=O)cc1 (configuration not stated) | -28%
COc1cc(NC(=O)N2CCCC2c2nncn2C2CCCC2)cc(OC)c1 (configuration not stated) | 0%
Cc1nn2c(c1-c1cccc3cn[nH]c13)N(C(=O)COc1ccccc1C(N)=O)CCC2 | -20%[70.6 µM]
CC(C)(C)CN1CCOC[C@H]1c1ncc(-c2ccc(F)cc2)[nH]1 | -6%[70.6 µM]

A second format for 2 compounds above.
Molecule	hNpr1 antagonist
CC(C)(C)CN1CCOC[C@H]1c1ncc(-c2ccc(F)cc2)[nH]1	-6%[70.6 µM]
CCN1C(=O)CCN(C(=O)c2cccs2)CC12CCOCC2	5%
